Source: PubChem
LANA-H2B inh: blocks KSHV LANA binding to histone H2A/H2B. Q9QR71. inhibition, % (concentration not given with the values). cell-free LANA-H2A/H2B peptide, fluorescence polarization. AID 2629. 0.6% of 320,000 active; in the data active = inhibition mostly above about 10%, no sharp cut-off; inactive = mostly below about 6.7%;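 note: stock transfer was 7.5 nL into about 10 µL; 0% = median of vehicle wells and 100% = median of positive control wells; one replicate is shown; the record names a cut of 25% in any replicate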
Ecoli rRNA inh: inhibits bacterial ribosomal RNA function over humanized ribosomes; AID 720706; GFP signal change (wild-type ribosome), % (no concentration beside the values); E. coli WT GFP vs humanized-ribosome RFP mutants, fluorescence, 24 h; hits give low values; DMSO median 0, no signal -100; 1.6% of 350,000 active;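 active = significant combined selectivity score with lowered wild-type GFP, culture density cut under 30%, mutant RFP and density less affected; inactive = any of these conditions unmet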; note: one replicate is shown; some compounds called inactive have numbers as strong as hits
T cruzi inh: blocks replication of Trypanosoma cruzi; T. cruzi beta-gal in NIH3T3, luminescence, 90 h; inhibition, % (test concentration not listed); 1.4% of 300,000 active; AID 1885;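 active = mean inhibition across valid replicates above about 55%, limit read from the data; inconclusive = mean below that limit but half or more replicates reach it; inactive = mean below it, under half of replicates reach it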;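 note: signal also drops with host cell toxicity which is not excluded here; 0% = plate median of DMSO wells and 100% = zero luminescence signal; higher percent means less beta-gal luminescence so fewer parasites; stock transfer was 50 nL into about 50 µL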
Beta2AR agonist: agonists of human beta-2 adrenergic receptor inducing internalization | response, % (no concentration beside the values) | 0.43% of 340,000 active | Am2.2-beta2AR cells, FAP receptor internalization, flow cytometry; reference of the scale not given here;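 active = response above a set limit, near 3 SD of response in nonfluorescent compounds, cut at about 42% in these data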;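 note: stock transfer was 100 nL into about 11 µL; a reference agonist was the positive control; negative values mostly stem from fluorescent compounds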
Target sequence (P07550 whole entry, looked up): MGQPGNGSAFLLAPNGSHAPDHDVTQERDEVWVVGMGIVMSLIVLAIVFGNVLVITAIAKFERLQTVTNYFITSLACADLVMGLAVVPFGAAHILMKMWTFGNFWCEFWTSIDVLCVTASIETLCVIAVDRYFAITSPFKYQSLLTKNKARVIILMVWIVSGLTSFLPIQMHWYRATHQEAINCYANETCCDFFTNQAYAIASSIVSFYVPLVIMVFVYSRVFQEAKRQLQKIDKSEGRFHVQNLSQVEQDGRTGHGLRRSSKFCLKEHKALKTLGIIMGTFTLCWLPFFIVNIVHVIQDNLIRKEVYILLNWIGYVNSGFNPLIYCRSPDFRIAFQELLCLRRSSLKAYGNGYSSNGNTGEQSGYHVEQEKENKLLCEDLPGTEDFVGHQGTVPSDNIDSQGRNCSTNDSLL
ALR H2O2 inh: blocks human ALR sulfhydryl oxidase activity. P55789. purified ALR, DTT oxidation, H2O2 HRP-luminol luminescence. inhibition, % (concentration not given with the values). 3.8% of 290,000 active. AID 485317;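 active = mean and each replicate at 75% or more; inconclusive = only one of the two met; inactive = neither met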;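 note: stock transfer was 7.5 nL into about 7.5 µL; 0% = neutral wells and 100% = wells with inactivated enzyme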
Target sequence (P55789 whole entry, looked up): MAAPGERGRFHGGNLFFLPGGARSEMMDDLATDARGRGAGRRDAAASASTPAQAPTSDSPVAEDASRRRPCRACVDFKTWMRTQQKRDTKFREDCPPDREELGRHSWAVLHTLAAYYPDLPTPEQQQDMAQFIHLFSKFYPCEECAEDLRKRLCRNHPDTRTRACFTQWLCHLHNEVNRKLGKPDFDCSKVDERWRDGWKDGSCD
Calb FLC: affects C. albicans growth with fluconazole; C. albicans CaCi-2 (fluconazole-resistant clinical isolate) + fluconazole, Alamar Blue growth, 48 h; growth inhibition, % (concentration not given with the values); 0.57% of 300,000 active; AID 1979;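 active = most replicates above 75%; inconclusive = exactly half above 75%; inactive = most below 75%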;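 note: all wells also contain fluconazole at 8 µg/ml as a sub-toxic cotreatment; 0% = median of DMSO wells and 100% = median of geldanamycin control wells; wells of about 8 µL received 7.5 nL stock; the first replicate is given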
Beta cell apopt: beta cell apoptosis inhibition | AID 435005 | protection from apoptosis, % (concentration not given with the values) | 0.8% of 300,000 active | INS-1E cytokine-induced death, ATP luminescence, 48 h; percent of positive-control rescue, neutral wells zero;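 active = all replicates at 75% or more, or half of them and the mean; inconclusive = half reach 75% but not the mean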;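 note: 0% = cytokine-treated negative control wells and 100% = positive control rescue; higher means more ATP so stronger rescue from cytokine killing; wells of about 40 µL received 100 nL stock; the first replicate is given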
Bfl-1 A1 inh: inhibitors of the anti-apoptotic protein A1, read as caspase activation; MEF A1-2A-BIM cells, Caspase-Glo 3/7 luminescence, 3 h; percent of clofoctol response, vehicle zero; caspase activation, % (test concentration not listed); 0.066% of 330,000 active;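 active = over half of replicate activation scores above 10%, or exactly half above 10 with the replicate mean above 10; inconclusive = replicate mean below 10 yet half the replicates above 10; inactive = over half of replicates below 10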;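 note: wells of about 30 µL received 50 nL stock; many hits fall short of the cut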
Ecoli rRNA inh OD600: further read-out of Ecoli rRNA inh, marked with its call; OD600 change, %; measured here: OD600 growth;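 optical density of the mix in the first replicate; 0 = DMSO median and -100 = no signal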
Ecoli rRNA inh RFP: recorded beside Ecoli rRNA inh, whose call it bears; RFP signal change, %; measured here: RFP humanized mutant strains;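 first replicate; 0 = DMSO median and -100 = no signal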
An asterisk follows results filed as active.

Screening O=C1c2ccccc2C(=O)N1Cc1cc(-c2ccc(Cl)cc2)no1 returned LANA-H2B inh -3.9, Ecoli rRNA inh 3.2, T cruzi inh -7.4, Beta2AR agonist -0.2, ALR H2O2 inh -3.1, Calb FLC 9.1, Beta cell apopt -5.0, Bfl-1 A1 inh 0.1, Ecoli rRNA inh OD600 -1.5 and Ecoli rRNA inh RFP -2.2.
Screening Cc1nn(C(C)C(=O)NCc2cccs2)c(=O)c2nn(-c3ccccc3)c(C)c12 (stereo unspecified) returned LANA-H2B inh 5.4, Ecoli rRNA inh 2.1, T cruzi inh -5.0, Beta2AR agonist -3.0, ALR H2O2 inh -0.5, Calb FLC -8.5, Beta cell apopt 0.9, Bfl-1 A1 inh 0.7, Ecoli rRNA inh OD600 6.3 and Ecoli rRNA inh RFP 1.6.
CCCCNC1=CC(=O)C(=O)c2ccccc21 was read as LANA-H2B inh 6.3, Ecoli rRNA inh 52.0, T cruzi inh 38.6, Beta2AR agonist -3.8, ALR H2O2 inh -29.7, Calb FLC inconclusive, Beta cell apopt 99.1*, Bfl-1 A1 inh 0.6, Ecoli rRNA inh OD600 -59.0 and Ecoli rRNA inh RFP 32.4.
Screening COc1ccc(S(=O)(=O)N2CCC(C(=O)N3CCCC3)CC2)cc1Cl returned LANA-H2B inh 0.4, T cruzi inh -3.4, Beta2AR agonist -6.0, ALR H2O2 inh -2.1, Calb FLC 13.3, Beta cell apopt -2.3 and Bfl-1 A1 inh -1.0.
`COc1ccc(N2CC(C(=O)Nc3nc(-c4ccccc4)c(C(C)=O)s3)CC2=O)c(OC)c1` (stereo unspecified) gave LANA-H2B inh 0.4, Ecoli rRNA inh -6.4, T cruzi inh -10.5, Beta2AR agonist -2.4, ALR H2O2 inh -10.0, Calb FLC 7.2, Beta cell apopt -1.9, Bfl-1 A1 inh 0.5, Ecoli rRNA inh OD600 -25.8 and Ecoli rRNA inh RFP 6.8.
Screening O=C(Cn1[nH]c(=O)c2ccccc2c1=O)N1CCN(S(=O)(=O)c2ccc(Cl)cc2)CC1 returned LANA-H2B inh -3.8, Ecoli rRNA inh 0.2, Beta2AR agonist -2.3, ALR H2O2 inh 0.6, Beta cell apopt -3.3, Bfl-1 A1 inh -0.6, Ecoli rRNA inh OD600 0.0 and Ecoli rRNA inh RFP -3.8.
For CC(=O)c1c(C)[nH]c(C(=O)CSc2ccc(F)cc2)c1C the results were LANA-H2B inh 4.5, Ecoli rRNA inh -14.1, T cruzi inh 16.5, Beta2AR agonist 10.4, ALR H2O2 inh 2.8, Calb FLC 7.7, Beta cell apopt 37.1, Bfl-1 A1 inh -0.4, Ecoli rRNA inh OD600 -11.4 and Ecoli rRNA inh RFP -2.2.
Cc1cc2nc(C)n(CCCN)c2cc1C was read as LANA-H2B inh 0.3, T cruzi inh 11.7, Beta2AR agonist 5.8, ALR H2O2 inh -1.8, Calb FLC 26.2, Beta cell apopt -9.6 and Bfl-1 A1 inh 0.1.
Screening CSc1nc(-c2ccccc2)c2cc(Cl)ccc2n1 returned LANA-H2B inh -1.1, Ecoli rRNA inh 5.1, T cruzi inh 7.7, Beta2AR agonist 1.0, ALR H2O2 inh 1.1, Beta cell apopt 2.4, Bfl-1 A1 inh 0.0, Ecoli rRNA inh OD600 10.2 and Ecoli rRNA inh RFP 0.7.
For CCc1nn(CC(=O)NCCCN2CCN(CC)CC2)c(=O)c2cc3occc3n12 the results were LANA-H2B inh -7.3, Ecoli rRNA inh 5.0, T cruzi inh -3.8, Beta2AR agonist -0.7, ALR H2O2 inh -1.0, Calb FLC -22.1, Beta cell apopt 2.3, Bfl-1 A1 inh -0.4, Ecoli rRNA inh OD600 13.1 and Ecoli rRNA inh RFP -0.1.
For CCOC(=O)N1CCC(NCc2c(C(=O)N(C)Cc3ccccc3)nc3ccccn23)CC1 the results were LANA-H2B inh 0.8, Ecoli rRNA inh 2.2, T cruzi inh 6.1, Beta2AR agonist -24.9, ALR H2O2 inh -2.4, Calb FLC -17.9, Beta cell apopt -2.1, Bfl-1 A1 inh -0.1, Ecoli rRNA inh OD600 4.9 and Ecoli rRNA inh RFP -0.5.
Screening CCCCNC(=O)c1ccccc1C(=O)NCCCC returned LANA-H2B inh 3.8, T cruzi inh -1.8, Beta2AR agonist -4.3, ALR H2O2 inh -4.5, Calb FLC -3.3, Beta cell apopt -3.8 and Bfl-1 A1 inh 1.4.
Screening Cc1nc(SCc2nc3ccc(C(F)(F)F)cc3[nH]2)c2oc3ccccc3c2n1 returned LANA-H2B inh 3.2, Ecoli rRNA inh 0.9, Beta2AR agonist -3.5, ALR H2O2 inh -2.6, Beta cell apopt 16.4, Bfl-1 A1 inh 0.2, Ecoli rRNA inh OD600 -13.7 and Ecoli rRNA inh RFP 2.0.
COc1ccc(OC)c(CCNC(=O)CN2C(=O)CC(C)(C)S(=O)(=O)c3ccccc32)c1 was read as LANA-H2B inh 1.6, Ecoli rRNA inh 4.0, T cruzi inh -4.7, Beta2AR agonist -2.2, ALR H2O2 inh -2.4, Calb FLC -18.7, Beta cell apopt -2.3, Bfl-1 A1 inh -0.3, Ecoli rRNA inh OD600 3.8 and Ecoli rRNA inh RFP -2.8.
Screening C[C@H]1CN=C(N(C)C)N1CC1CCCC1 returned LANA-H2B inh -2.9, Ecoli rRNA inh 6.7, Beta2AR agonist 2.1, Beta cell apopt -8.4, Bfl-1 A1 inh 0.3, Ecoli rRNA inh OD600 8.4 and Ecoli rRNA inh RFP 7.7.
COCCCn1cnc2oc3nc4ccccc4nc3c2c1=O was read as LANA-H2B inh 6.5, T cruzi inh -15.0, Beta2AR agonist -18.9, ALR H2O2 inh -2.1, Calb FLC -8.6, Beta cell apopt -9.1 and Bfl-1 A1 inh -0.6.
CON/C=C(\C=Nc1ccccc1)c1ncc(C(F)(F)F)cc1Cl was read as LANA-H2B inh -2.6, T cruzi inh 9.1, Beta2AR agonist -2.0, ALR H2O2 inh 5.0, Calb FLC -5.8, Beta cell apopt 10.9 and Bfl-1 A1 inh -0.5.
`CC(C)OCCCNC(=O)c1ccc(CS(=O)(=O)Cc2ccccc2F)o1` gave LANA-H2B inh 5.5, Ecoli rRNA inh 6.2, T cruzi inh -0.1, Beta2AR agonist 5.1, ALR H2O2 inh -7.2, Calb FLC -3.4, Beta cell apopt 4.0, Bfl-1 A1 inh 0.2, Ecoli rRNA inh OD600 8.5 and Ecoli rRNA inh RFP -4.9.
O=C(COC(=O)c1ccc(OC(F)F)cc1)NCc1cccs1 was read as LANA-H2B inh -1.4, Ecoli rRNA inh -5.2, Beta2AR agonist 5.3, ALR H2O2 inh -10.3, Beta cell apopt -5.6, Bfl-1 A1 inh 1.0, Ecoli rRNA inh OD600 -9.0 and Ecoli rRNA inh RFP -0.8.
Screening CC(C)c1ccc(C(=O)NN2C(=O)C3CCCCC3C2=O)cc1 (stereo unspecified) returned LANA-H2B inh 4.4, Ecoli rRNA inh 4.3, T cruzi inh -8.6, Beta2AR agonist 5.0, ALR H2O2 inh -4.4, Calb FLC -1.9, Beta cell apopt -3.2, Bfl-1 A1 inh 1.5, Ecoli rRNA inh OD600 6.6 and Ecoli rRNA inh RFP -2.0.
Screening CSc1ccc(CCNC(=O)c2nn(C)c3c2CS(=O)(=O)c2ccccc2-3)cc1 returned LANA-H2B inh -0.8, Ecoli rRNA inh -6.7, T cruzi inh 16.2, Beta2AR agonist 3.6, ALR H2O2 inh -19.9, Calb FLC -19.4, Beta cell apopt -1.9, Bfl-1 A1 inh 0.5, Ecoli rRNA inh OD600 -17.9 and Ecoli rRNA inh RFP 2.6.
COc1ccccc1/C=N/NC(=O)C(NC(=O)c1ccccc1)=C(C)C was read as LANA-H2B inh 3.4, T cruzi inh -18.2, Beta2AR agonist 5.9, Calb FLC -8.3, Beta cell apopt -3.9 and Bfl-1 A1 inh -0.4.
`CSCCC(NC(=O)c1ccc(=O)n(C)n1)c1nc2ccccc2[nH]1` (stereo unspecified) gave LANA-H2B inh 2.4, T cruzi inh -5.7, Beta2AR agonist 6.3, Calb FLC -7.8, Beta cell apopt -2.7 and Bfl-1 A1 inh 0.6.
For COc1ccc(Br)cc1S(=O)(=O)N1CCN=C1c1ccccc1 the results were LANA-H2B inh 1.4, Ecoli rRNA inh -0.5, T cruzi inh -8.2, Beta2AR agonist 1.7, ALR H2O2 inh -9.9, Calb FLC -0.7, Beta cell apopt -7.7, Bfl-1 A1 inh 0.8, Ecoli rRNA inh OD600 0.4 and Ecoli rRNA inh RFP -3.9.
For O=C1NC2(CCCCC2)C(=O)N1Cc1cccc(C(F)(F)F)c1 the results were LANA-H2B inh -4.0, Ecoli rRNA inh 1.1, T cruzi inh -10.1, Beta2AR agonist 2.1, ALR H2O2 inh -13.6, Calb FLC -8.6, Beta cell apopt -0.3, Bfl-1 A1 inh 0.1, Ecoli rRNA inh OD600 -9.4 and Ecoli rRNA inh RFP -3.5.
`CCc1ccc(OC(C)C(=O)Nc2ccc(S(=O)(=O)Nc3cc(C)on3)cc2)cc1` (stereo unspecified) gave LANA-H2B inh -12.4, Ecoli rRNA inh -9.2, T cruzi inh -6.9, Beta2AR agonist 0.9, ALR H2O2 inh 9.1, Calb FLC -3.7, Beta cell apopt -2.7, Bfl-1 A1 inh 0.5, Ecoli rRNA inh OD600 -7.8 and Ecoli rRNA inh RFP -1.2.
`CCOC(=O)c1[nH]c(C)c(C(=O)OCC(=O)Nc2sc3c(c2C#N)CCCCC3)c1C` gave LANA-H2B inh 2.3, Ecoli rRNA inh 14.7, T cruzi inh 16.3, Beta2AR agonist -6.5, ALR H2O2 inh -1.5, Calb FLC -3.7, Beta cell apopt 14.2, Bfl-1 A1 inh 0.7, Ecoli rRNA inh OD600 13.7 and Ecoli rRNA inh RFP 0.5.
Cc1ccc(CC2CC(=O)N(c3cc(Cl)ccn3)C2=O)cc1 (stereo unspecified) was read as LANA-H2B inh 1.2, Ecoli rRNA inh 10.6, T cruzi inh -9.3, Beta2AR agonist 4.3, ALR H2O2 inh -8.5, Calb FLC 1.1, Beta cell apopt -6.5, Bfl-1 A1 inh -0.5, Ecoli rRNA inh OD600 -0.6 and Ecoli rRNA inh RFP 1.2.
Cc1ccc2c(Cl)c(C(=O)NCCc3ccccc3)sc2c1 was read as LANA-H2B inh -5.5, T cruzi inh -0.3, Beta2AR agonist -10.6, Calb FLC 20.5, Beta cell apopt -4.2 and Bfl-1 A1 inh -9.4.
CC(C)Sc1nc2[nH]ncc2c(=O)[nH]1 was read as LANA-H2B inh -3.5, Ecoli rRNA inh 7.1, T cruzi inh -3.0, Beta2AR agonist 2.5, ALR H2O2 inh -6.8, Calb FLC -6.6, Beta cell apopt -9.7, Bfl-1 A1 inh -0.5, Ecoli rRNA inh OD600 6.6 and Ecoli rRNA inh RFP 0.4.
CCOc1ccc(C(C)NC(=O)c2ccccc2F)cc1 (stereo unspecified) was read as LANA-H2B inh -5.3, Ecoli rRNA inh 16.7, T cruzi inh 3.7, Beta2AR agonist -7.0, ALR H2O2 inh -0.5, Calb FLC 5.6, Beta cell apopt 0.7, Bfl-1 A1 inh 0.4, Ecoli rRNA inh OD600 8.9 and Ecoli rRNA inh RFP -2.3.
CN(C)C(=O)CCCc1nc(-c2ccc(Cl)cc2)no1 was read as LANA-H2B inh 1.8, T cruzi inh -1.2, Beta2AR agonist 3.0, ALR H2O2 inh -4.6, Calb FLC 13.7, Beta cell apopt -1.9 and Bfl-1 A1 inh -0.3.

An excerpt; count on the stated rates, not on these rows.
